Sa helicase inh: inhibitors of S. aureus replicative helicase, primary screen, biochemical, fluorescence unwinding readout | 120,000 compounds, 0.05% hits | purified S. aureus helicase, fluorescence unwinding assay; about half of the hits fall short of the stated cut | inhibition, %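 (tested at about 80 µM)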 | AID 485395, 2010 | replicative DNA helicase (DnaC/DnaB), Staphylococcus aureus;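 active means both duplicates at 50% or more, or one of them with a favoured structure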;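 further: 0% = mean of negative control wells and 100% = mean of positive control wells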
MgrA DNA FP: S. aureus MgrA activity modulators, primary screen, biochemical, S. aureus Newman, fluorescence polarization; MgrA-DNA binding; inhibition, %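 (about 10 µg/mL by stock and volumes)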; 84,000 compounds, 0.13% hits; AID 602314, 2012;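 active means above 50% in either of two replicates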;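 further: 0% = protein plus DNA without compound and 100% = DNA alone without protein; higher means less MgrA bound to DNA so lower polarization; one replicate is shown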
An asterisk follows results filed as active; . = not tested or not shown. An excerpt; count on the stated rates, not on these rows.

mol,Sa helicase inh,MgrA DNA FP
CC(C)(C)S(=O)(=O)Cc1noc(-c2ccc(OC(F)(F)F)cc2)n1,.,1.2
COC(CNC(=O)c1cnn2c(C)c(Cc3ccccc3C)c(C)nc12)OC,1,.
COc1ccc(-c2ocnc2C(=O)Nc2cccc(Oc3ccccc3)c2)cc1OC,-5,2.5
Cc1ccc(C(C)NC2(C#N)C3CC4CC(C3)CC2C4)c(C)c1 (stereo unspecified),.,-1.3
O=C(NC1CC1)c1cc(F)c(F)cc1Cl,-30,-2.0
CC1CCC(NC(=O)c2ccc3snnc3c2)CC1 (stereo unspecified),7,0.4
C[C@@H](C(=O)OCN1C(=O)c2ccccc2C1=O)N1C(=O)C2CC=CCC2C1=O (stereo partly specified),2,.
NC(=O)c1ccc(NC(=O)CSc2cccc[n+]2[O-])cc1,-6,-0.5
Cc1ccc(N=Cc2cc(Br)ccc2O)c(S(=O)(=O)N2CCOCC2)c1,2,.
N#Cc1ccccc1S(=O)(=O)NCc1ccco1,7,.
COC(=O)C(=O)/C=C(\O)c1ccc(Cl)cc1,.,-1.6
CCCNC(=O)Cn1cccc1C(=O)c1ccccc1,9,-0.8
OCCN(CCO)CC(O)C12CC3CC(CC(C3)C1)C2 (stereo unspecified),3,-1.1
CN1C(=O)C2(NN=C(c3ccccc3)S2)c2cc(Br)ccc21 (stereo unspecified),2,.
O=C(Oc1ccc2c(c1)OCC2=O)c1ccc(Cl)cc1,9,.
N#C/C(=C\N1CCN(Cc2ccccc2)CC1)S(=O)(=O)c1ccccn1,-8,.

Part of the list above, with each value named.
SMILES: COC(=O)C(=O)/C=C(\O)c1ccc(Cl)cc1
  Sa helicase inh = .
  MgrA DNA FP = -1.6

SMILES: OCCN(CCO)CC(O)C12CC3CC(CC(C3)C1)C2 (stereo unspecified)
  Sa helicase inh = 3
  MgrA DNA FP = -1.1

SMILES: CCCNC(=O)Cn1cccc1C(=O)c1ccccc1
  Sa helicase inh = 9
  MgrA DNA FP = -0.8

SMILES: N#C/C(=C\N1CCN(Cc2ccccc2)CC1)S(=O)(=O)c1ccccn1
  Sa helicase inh = -8
  MgrA DNA FP = .

(cont.)
mol,Sa helicase inh,MgrA DNA FP
CC12CCC(c3c1nn(-c1ccccc1)c3C(F)(F)F)C2(C)C (stereo unspecified),.,-0.7
Nc1nnc(CCCn2c(=O)oc3ccccc32)s1,6,3.8
[O-][n+]1ccccc1Sc1nnc(Cc2ccccc2)c2ccccc12,.,2.9
Cc1ccccc1CNC(=O)c1c(C)nc2ccccn2c1=O,-3,-0.5
N#Cc1c(SCCN2CCCCC2)sc2c(O)cc(=O)[nH]c12,6,1.1
CC(C)(C)C1CC=C2C(C#N)=C(N)C(C#N)(C#N)C(CCc3ccccc3)C2C1 (stereo unspecified),5,.
CN1CCN(CCCNC(=O)c2cc3c(=O)n(C)c4ccccc4c3s2)CC1,-20,.
O=S1(=O)CCC(Nc2nc(-c3cccnc3)nc3scc(-c4ccccc4)c23)C1 (stereo unspecified),-21,.
C=CCn1cnc2c(oc3ccccc32)c1=O,12,5.6
CCN(CC)C(=O)CSc1nnc(-c2ccc(OC)cc2)n1CCOC,5,0.6
CC(C)(C)n1cccc1C=C1C(=O)NC(=O)NC1=O,8,1.1
COc1ccccc1C(=O)NCC(=O)N1CCN(S(=O)(=O)c2cc(C)ccc2C)CC1,-3,.
CC1CCCC(C)N1C(=O)c1ccccc1 (stereo unspecified),8,1.0
COc1cc(SC)ccc1C(=O)N(C)c1ccccc1,-1,0.6
CCC(=O)NC(c1ccc(C(C)C)cc1)c1c(O)ccc2ccccc12 (stereo unspecified),8,0.4
Cc1ccc2cccc(S(=O)(=O)N3CCCc4ccccc43)c2n1,12,.
C=C(C)/C=N/NC(=S)Nc1ccc(S(=O)(=O)N2CCOCC2)cc1,9,.
COc1ccc(CC(=O)NCC(C)C)cc1,-2,1.1
O=C(CCOc1ccccc1)Nc1nc(-c2ccccn2)cs1,-8,.
O=C(Nc1cccc(C(F)(F)F)c1)c1noc2c1CCCC2,-29,.
C=CCN(c1ccccc1)S(=O)(=O)c1cccc2cccnc12,4,-1.2
CCC(=O)Nc1nnc(COc2ccc(OC)cc2)s1,2,5.2
Cc1ccc(NC(=O)CSC2CCCC2)c(C)c1,14,0.7
O=C(/C=N/O)Nc1ccc(Cl)cc1,.,-1.7
CCc1ccc(C2Nc3cc(Cl)ccc3C3=NCCCN32)cc1 (stereo unspecified),3,-5.5
CC(C)(C)Nc1nc(=O)[nH]c(=O)[nH]1,-1,-1.8
O=S(=O)(Nc1ccc2c(c1)nc1n2CCN(Cc2ccccc2)C1)c1ccc(F)cc1,26,.
CCC(C(=O)Nc1cccc(C(=O)O)c1)c1ccccc1 (stereo unspecified),17,0.5
O=C(NCc1ccccc1CN1CCOCC1)c1ccc(-n2cccn2)cc1,7,.
NC(=O)c1ccc(C2SCC(=O)N2Cc2ccccc2)cc1 (stereo unspecified),6,.
CCn1c(CNC(=O)NCc2ccccc2)nnc1SC,-6,0.2
CCN(CC)S(=O)(=O)c1cccc2c(S(=O)(=O)N(CC)CC)cccc12,-9,.

Four of the compounds above, as labelled records:
SMILES: CCn1c(CNC(=O)NCc2ccccc2)nnc1SC
  Sa helicase inh = -6
  MgrA DNA FP = 0.2
SMILES: CC(C)(C)Nc1nc(=O)[nH]c(=O)[nH]1
  Sa helicase inh = -1
  MgrA DNA FP = -1.8
SMILES: O=C(NCc1ccccc1CN1CCOCC1)c1ccc(-n2cccn2)cc1
  Sa helicase inh = 7
  MgrA DNA FP = .
SMILES: NC(=O)c1ccc(C2SCC(=O)N2Cc2ccccc2)cc1 (stereo unspecified)
  Sa helicase inh = 6
  MgrA DNA FP = .

Continuation:
mol,Sa helicase inh,MgrA DNA FP
COC(=O)c1ccc2c(c1)N(Cc1ccccc1)C(=O)c1ccccc1S2,1,0.9
c1ccc2[nH]c(CCCCc3nc4ccccc4[nH]3)nc2c1,3,.
Cc1ccc(NC(=O)Cc2ccc(NC3=NC4CS(=O)(=O)CC4S3)cc2)cc1 (stereo unspecified),6,.
Cc1cc2oc(=O)sc2cc1NS(=O)(=O)c1cccc2cccnc12,20,-3.3
Cc1cc(C(=O)COC(=O)c2ccc(S(=O)(=O)NCc3ccco3)cc2)c(C)n1C,-4,.
C#CCn1c(=NC(=O)C(C)(C)C)sc2cccc(OCC)c21,6,.
CC1C(C#N)=C(N)SC(N)=C1C#N,-198,16
COc1ccc(NC(=O)Cc2cc(F)cc(F)c2)cc1,.,-1.4
Oc1ccc(N=Cc2ccco2)cc1,4,1.1
CCOC(=O)C1=C(Nc2ccc(OC(C)=O)cc2)C(=O)N(C(C)(C)C)C1,.,0.4
CC(=O)NC(c1ccc(Cl)cc1)C1CCCCC1=O (stereo unspecified),-12,-0.9
CCCN(CCC)S(=O)(=O)c1ccc(C(=O)Nc2ccc3c(c2)OCO3)cc1,-32,.
Cc1cc(C(=O)COC(=O)c2n[nH]c(=O)c3ccccc23)c(C)n1-c1ccc(S(N)(=O)=O)cc1,-5,.
COC(=O)C1=C(\N2CCOCC2)CCCC/C=C\1C(=O)OC,-5,.
CCS(=O)(=O)Nc1ccc2[nH]c(=O)[nH]c2c1,-1,-0.1
O=C1c2ccccc2OC(c2ccccc2)C1O (stereo unspecified),.,-2.8

A second format for part of the listing above.
Sa helicase inh | MgrA DNA FP | SMILES
7 | 0.4 | CC1CCC(NC(=O)c2ccc3snnc3c2)CC1 (stereo unspecified)
2 | . | C[C@@H](C(=O)OCN1C(=O)c2ccccc2C1=O)N1C(=O)C2CC=CCC2C1=O (stereo partly specified)

More records:
mol,Sa helicase inh,MgrA DNA FP
COc1ccc(CNC(=O)C(OC)c2ccccc2)cc1 (stereo unspecified),5,-6.9
CCOc1ccc(NS(=O)(=O)c2cccc(C(=O)Nc3nnc(C4CC4)s3)c2)cc1,-19,.
Cc1ccc(S(=O)(=O)N(CCc2cccs2)CC(=O)O)cc1,-14,.
O=C(O)C1CCN(C(=O)c2ccc(Cl)cc2)CC1,-3,.
O=C(Cc1ccccc1F)OCC(=O)c1cc2ccccc2o1,-37,-5.2
O=C(CSc1nc2ccccc2s1)NCCC1=CCCCC1,-11,-0.9
COc1cccc(NC(=O)CCC(=O)Nc2cccc(OC)c2)c1,-12,0.4
CCc1ccccc1NC(=O)c1cc(=O)c2ccccc2o1,-9,.
CC1=NN(c2nc3ccccc3s2)C(=O)C1CCC(C)C (stereo unspecified),-3,.
O=C1NC2(CCCCC2)N(C(=O)c2ccccc2)C2=C1CCCC2,13,-1.1
CC(C)Sc1nc2ccccc2[nH]1,4,-2.2
O=C(NC1CCN(C(=O)C2CCCCC2)CC1)C1CCCCC1,.,-1.1
CCOC(=O)Cn1c(=O)oc2cc(S(=O)(=O)N3CCCCC3)ccc21,5,.
O=S(=O)(c1cc(O)cc(S(=O)(=O)C(F)(F)F)c1)C(F)(F)F,8,4.2
O=C1NC(=S)C(=C2CCCC2)S1,28,.
FC(F)n1c2ccccc2c2ccccc21,-4,.
CN(C(=O)Nc1cn(C)c2ccccc12)C1CCCCC1,8,.
Nn1cc(-c2ccccc2)nc1SCC(=O)c1ccc(Cl)s1,-11,.
O=C(c1ccc2c(c1)OCCO2)N1CCCSC1=Nc1ccccc1,2,.
COc1ccc(S(N)(=O)=O)cc1C,5,1.6
Cc1nnc2n(c1=O)C(CS(=O)(=O)c1ccccc1)CS2 (stereo unspecified),6,-1.8
c1ccc2[nH]c(Cc3nnc4n3CCCCC4)nc2c1,11,1.8
O=C(/C=C/c1ccco1)N1CCn2c(nc3ccccc32)C1,-3,2.0
O=C(NCCc1ccccc1)c1ccc2c(c1)N(Cc1ccccc1)C(=O)CS2,5,0.4
COc1ccc(C(=O)Nc2ccc3oc(-c4ccc(F)cc4Cl)nc3c2)cc1[N+](=O)[O-],.,-0.7
CC(C)C(C(=O)O)n1c(O)c(C2=c3cc(Br)ccc3=NC2=O)sc1=S (stereo unspecified),.,0.1
CN(CC1CCCO1)S(=O)(=O)c1ccc(C(=O)Nc2nnc(-c3ccccc3)o2)cc1 (stereo unspecified),8,.
O=C(CN1CCCCCC1=O)OCc1ncc(-c2ccccc2)o1,9,.
CC(C)(C)c1ccc(C(=O)N2CCC(C(=O)NCc3ccco3)CC2)cc1,-16,3.1
Cn1ncc(N)c1C(=O)N1CCOCC1,-10,0.8
CCCCN1C(=O)c2ccc(C(=O)OCC(=O)c3ccc(CNC(C)=O)o3)cc2C1=O,2,.
CC(C)Nc1cc(N2CCN(Cc3ccc4c(c3)OCO4)CC2)c2noc3c2c1C(=O)c1ccccc1-3,-121,.
c1ccc2[nH]c(CCCc3nc4ccccc4[nH]3)nc2c1,8,-0.1
CN1C(=O)/C(=C/c2ccccc2)NC1=S,14,-0.1
C=CCn1c(N)cc(=O)nc1SCC(=O)NC(C)c1ccccc1 (stereo unspecified),4,-1.0
O=C(NC1CCCC1)C(c1ccc(O)cc1)N(C(=O)Cn1nnc(-c2cccs2)n1)C1CCCC1 (stereo unspecified),2,16
CC(=O)N1C(=O)C2(C(C#N)=C(N)Oc3cc(C)oc(=O)c32)c2ccccc21 (stereo unspecified),3,-0.2
CN(C(=O)CSc1ncnc2ccccc12)C1CCCCC1,26,-1.3
O=C(Nc1ccc2c(c1)OCO2)c1ccc(Br)o1,11,-0.9
O=C1C2CCCN2C(=O)N1c1ccc(Br)cc1 (stereo unspecified),-2,0.1
Cn1ccc(-c2ccc(Oc3cccc(Cl)c3C#N)cc2)n1,.,0.8
CC1=C(C(=O)Nc2ccccc2)C(c2cccs2)C(C#N)=C(SCC(=O)O)N1 (stereo unspecified),-15,.
COc1cccc2cc(C(=O)N3CCC(C)CC3)c(=O)oc12,-13,.
CCN1CCN(CC(=O)c2ccc(C)cc2)CC1,-11,.
O=C(/C=C/c1ccccc1)Nc1nnc(-c2ccc3c(c2)CCCC3)o1,9,.
CC1CCN(C(=S)NC2CCCCC2)CC1,-23,.
O=C1NCC(c2ccccc2)Oc2ccccc21 (stereo unspecified),.,-1.9
S=c1[nH]c(-c2ccccc2)cn1/N=C/c1cccs1,9,.
CCN(CC)S(=O)(=O)c1cc(C(=O)Nc2ccccc2C)ccc1C,5,0.7
O=C(OCCS(=O)(=O)c1ccccn1)c1cccc(Cl)c1,.,-0.1
CCC(C)c1ccc(NC(=O)CSc2ncn[nH]2)cc1 (stereo unspecified),-11,1.5
N#Cc1c(-c2ccccc2)cc2c(c1N)c(=O)oc1ccccc12,.,-0.7
CCSc1ncc(Cl)c(C(=O)NCc2ccccc2)n1,9,4.0
NNC(=O)c1cc2cc(OC(F)(F)F)ccc2[nH]1,-12,.
COc1cc(/C=C(\C#N)C(=O)OC(C)(C)C)cc(OC)c1,-7,.
C=CCn1c(=S)sc2c(=O)n(CC(=O)Nc3ccc(C)c(C)c3)cnc21,-5,.

Other structures
mol,Sa helicase inh,MgrA DNA FP
CCC(C)(C)n1nnnc1C(c1ccccc1)N1CCc2ccccc2C1 (stereo unspecified),-1,1.1
Nc1c(C(=O)N/N=C/c2ccc3c(c2)OCO3)cnn1-c1ccccc1,-17,.
CN(CC(=O)N1CCN(c2ccccc2)CC1)S(=O)(=O)c1ccc2c(c1)CCC(=O)N2,11,.
O=C1CSC(=O)N1CCOc1ccc(F)cc1,12,-0.9

Screening data from PubChem BioAssay.
